# High-throughput results from PubChem BioAssay.
# NPYLR7 agonist – activates Aedes aegypti NPYLR7 receptor; HEK293T NPYLR7/Galpha15, GCaMP6s calcium fluorescence; activation, % at 10 µM; hit rate 0.15% among 270,000; in the data active = activation above about 40%;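 note: 0% = vehicle and 100% = reference agonist at the receptor; some compounds past the cut are filed as inactive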
# NPYLR7 agonist max-min – recorded beside NPYLR7 agonist, whose call it bears; activation, %; measured here: Max-Min RFU normalised activation; some inactives read as strong as hits;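 span of the calcium signal over five minutes; 0% = vehicle and 100% = native peptide agonist; compound fluorescence can raise it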
# An asterisk follows results filed as active; & = joins results of further samples.
# Fields: NPYLR7 agonist, NPYLR7 agonist max-min
> COC1CCN(S(=O)(=O)N2CCCCC2CCc2ccccc2)CC1 (stereo not drawn)
  0, 2
> Cc1cc(C)cc(NC(=O)c2ccccc2NS(=O)(=O)c2ccc(OC(F)(F)F)cc2)c1
  31, 17
> O=C1NCCCC1C(=O)NCCc1c[nH]c2ccc(OCc3ccccc3)cc12 (stereo not drawn)
  -6, 1
> CC(C)(C)OC(=O)N1CCC(Oc2ccc(NC(=O)Nc3ccc(Cl)c(C(F)(F)F)c3)cc2)C1 (stereo not drawn)
  -6, -10
> N[C@H](C(=O)O)c1ccc(C(=O)O)c(O)c1
  7, 5
> CC(C)(C)OCC(O)CN1CCC(=O)N(CC(=O)C(C)(C)C)CCc2ccccc21 (stereo not drawn)
  24, 34
> CCOC(=O)C1(C/C=C/c2ccccc2)CCCN(C(=O)c2ccc(OC)o2)C1 (stereo not drawn)
  7, 4
> Cc1nn(CC(=O)NS(=O)(=O)c2ccc(F)cc2)c(C)c1Cl
  11, 4
> CCc1[nH]n(C)c(=O)c1C1=C(N(C)C2CCCCC2)C(=O)N(c2cc(C)ccc2OC)C1=O
  20, 20
> Cc1cc(C)cc(-n2nnc3c(=O)n(CC(=O)Nc4ccc(C(N)=O)cc4)cnc32)c1
  -3, -6
> N#CC(=Cc1ccc(F)cc1)c1nnc2n1-c1cc([N+](=O)[O-])ccc1OC2
  16, 10
> CC(C)COc1nc(-c2ccc(C(F)(F)F)cc2)n(-c2ccc(NS(=O)(=O)c3ccc(Cl)cc3)cc2)n1
  33, 29
> COC(=O)/C(C#N)=C/c1c(Oc2cccc(C)c2C)nc2ccccn2c1=O
  5, 8
> O=C(NCc1c(F)cccc1F)c1cncn1-c1ccc(-c2cc(C(F)(F)F)cc(C(F)(F)F)c2)cc1
  4, 3
> O=C(/C=C/c1ccccc1)NCCSc1ncc(-c2ccc(F)cc2)[nH]1
  9, 6
> Cc1nc(CNC(=O)C2CCCN(C(=O)c3ccccc3)C2)cs1 (stereo not drawn)
  9, 4
> CN(C)c1ccc(NC(=O)c2ccccc2Cl)cc1CN(CC1CCCO1)S(=O)(=O)c1ccc(F)cc1 (stereo not drawn)
  6, 18
> COc1ccc(N2C(=O)c3cccc4c(Cl)ccc(c34)C2=O)cc1
  3, -3
> Cc1cccc(-c2nc3c(c(=O)[nH]2)CN(C(=O)NCc2ccccc2)CC3)c1
  1, 10
> Nc1c(C(=O)Nc2ccccc2)c2ccccn2c1C(=O)c1ccc(Br)cc1
  -4, -8
> Cc1nn(C)c(Cl)c1S(=O)(=O)N1CCN(CC(OCc2c(F)cccc2F)c2ccc(Cl)cc2)CC1 (stereo not drawn)
  -1, 4
> Cc1ccc(S(=O)(=O)NC(C)C)cc1C(=O)OCC#N
  3, -2
> CCCCCOc1ccc(C(=O)N2CCC[C@H]2C(=O)OCc2ccccc2)cc1OCCCCC
  -3, -9
> O=C1c2ccccc2C(=O)C1c1nccc2ccccc12
  0, -4
> CC(=O)c1cccc(N2C(=O)C3C4C=CC(C5CC45)C3C2=O)c1 (stereo not drawn)
  7, -7
> Cc1[nH]cnc1-c1nccn1-c1cccc(CN2CCCC2)c1
  27, 12
> CSc1ccccc1C(=O)N1CCC(CCC(=O)NC2CC2)CC1
  5, 2
> O=C(O)CSCc1csc2c1CCCC2
  7, 6
> CCN(CC)CCNc1nc2c(OC)cccc2s1
  2, 3
> CCOC(=O)c1cc(-c2ccc(Cl)cc2Cl)n(-c2ccc(C(=O)NCC3CCCO3)cc2)n1 (stereo not drawn)
  8, 4

# Going on with the list:
# Fields: NPYLR7 agonist, NPYLR7 agonist max-min
> COc1ccc(C2NN(Cc3ccccc3)C3C(=O)N(Cc4ccccc4)C(=O)C23)cc1 (stereo not drawn)
  -11, -17
> COc1ccc(C)cc1NC(=O)c1c(C)cc(C)n1Cc1cccc(C)c1
  30, 36
> CN(c1ccccc1)S(=O)(=O)c1c[nH]c(=O)[nH]c1=O
  8, 4
> CCOc1cccc2sc(=NC(=O)CS(=O)(=O)c3ccccc3)n(C)c12
  4, 2
> O=C(/C=C/c1ccccc1)N1CCC(Cc2ccc(C(F)(F)F)cc2)CC1
  0, 2
> CC1(c2ccc3c(c2)OCO3)NC(=O)N(Cc2cc(=O)oc3cc4c(cc23)CCC4)C1=O (stereo not drawn)
  -6, -9
> COc1ccc(/C=C/C(=O)Nc2ccc(C34CC5CC(CC(O)(C5)C3)C4)cc2)cc1
  3, 1
> Cc1cccc(SC2CCN(Cc3nc(-c4ccc5c(c4)OCO5)no3)CC2)c1
  21, 10
> Cc1nc(-n2cccc2)sc1C(=O)N1CCN(C(=O)OC(C)(C)C)CC1
  -8, -9
> Cc1ccccc1N1CCN(C2CCCN(C(=O)c3ccc4ccccc4c3)C2)CC1 (stereo not drawn)
  3, -7
> O=C(O)C1(CCCc2ccccc2)CCCN(c2cnccn2)C1 (stereo not drawn)
  -9, -11
> O=C(NCc1ccco1)c1ccc(CSc2nnc(-c3ccco3)n2-c2ccc(F)cc2)cc1
  21, 21
> COCC(=O)N1CCN(c2ccc(Cl)cc2C)C(=O)C1C (stereo not drawn)
  5, 13
> CCCOc1ccc(C2NC(=O)NC(C)=C2C(=O)OCCC(C)C)cc1 (stereo not drawn)
  4, 5
> CN(C1=NC(=O)C(CC(=O)O)S1)c1ccc(O)cc1 (stereo not drawn)
  -1, -2
> C#CCOCC(O)CN(Cc1c(-c2ccccc2)noc1N1CCCCC1C)CC1CCCO1 (stereo not drawn)
  -1, 4
> CCOc1ccccc1N1CCN(C(=O)c2cccc(CSc3nc(Cl)cc(N(C)CCc4ccc(OC)c(OC)c4)n3)c2)CC1
  32, 29
> S=c1[nH]nc(CN2CCCC2)n1-c1ccccc1
  5, 11
> CC(C)(C)n1ncc2c(=O)n(NC(=O)C3CC(=O)N(c4ccc(F)cc4)C3)cnc21 (stereo not drawn)
  4, 2
> O=C(NNC(=O)C12CC3CC(CC(C3)C1)C2)C12CC3CC(CC(C3)C1)C2
  2, 7
> COc1ccc(-c2ccc(=O)n(CCCNC(=O)Nc3cccc(OC)c3)n2)cc1
  0, -1
> COc1cc2ccccc2cc1C(=O)NC(=S)Nc1cc(C)ccc1O
  -9, -13
> Cc1nn(CC(=O)NCCCCOc2ccc(Cl)cc2)c(C)c1[N+](=O)[O-]
  -6, 9
> CCOc1c[nH]c(C(=O)Nc2ccc(Cl)c(Cl)c2)cc1=O
  1, 0
> COC(=O)CCc1c(C)nn(-c2ccc(C(=O)NCCc3cccc(F)c3)cc2)c1C
  -4, -8
> CCc1cnc(C)nc1N1CCC(NS(C)(=O)=O)CC1
  -5, -6
> Brc1ccc(-c2noc(-c3cccnc3)n2)o1
  -6, -9
> Cc1ccc(NC(=O)N2CCC(C(NC(=O)c3cccs3)C(=O)N3CCOCC3)CC2)cc1 (stereo not drawn)
  10, 7
> O=S(=O)(Nc1cccnc1N1CCCC1)c1cc(F)ccc1F
  -2, -2
> Cc1ccc(C2N=C(N3CCCCC3)Nc3nc(C)cc(=O)n32)cc1 (stereo not drawn)
  4, 3

# Two compounds drawn at random from those above:
# Fields: NPYLR7 agonist, NPYLR7 agonist max-min
> Cc1ccccc1N1CCN(C2CCCN(C(=O)c3ccc4ccccc4c3)C2)CC1 (stereo not drawn)
  3, -7
> S=c1[nH]nc(CN2CCCC2)n1-c1ccccc1
  5, 11

# In another format: 3 of the compounds above.
canonical_smiles: Cc1cc(C)cc(NC(=O)c2ccccc2NS(=O)(=O)c2ccc(OC(F)(F)F)cc2)c1
- NPYLR7 agonist = 31
- NPYLR7 agonist max-min = 17
canonical_smiles: O=C1NCCCC1C(=O)NCCc1c[nH]c2ccc(OCc3ccccc3)cc12 (stereo not drawn)
- NPYLR7 agonist = -6
- NPYLR7 agonist max-min = 1
canonical_smiles: CC(C)(C)OC(=O)N1CCC(Oc2ccc(NC(=O)Nc3ccc(Cl)c(C(F)(F)F)c3)cc2)C1 (stereo not drawn)
- NPYLR7 agonist = -6
- NPYLR7 agonist max-min = -10

# The list goes on.
# Fields: NPYLR7 agonist, NPYLR7 agonist max-min
> CCOC(=O)N1CCN(C(c2ccc(OC)cc2)c2c(O)cc(C)n(CC)c2=O)CC1 (stereo not drawn)
  12, 3
> O=C(NCC(=O)N1CCCc2ccccc21)N1CCOC(c2ccccc2)C1 (stereo not drawn)
  51, -9
> COc1ccc(CCNC(=O)c2csc(CSc3nnc(-c4cccnc4)n3-c3cc(Cl)ccc3C)n2)cc1OC
  -1, 11
> CCOC(=O)c1cnc2cc(OC(=O)c3ccccc3)nn2c1C
  3, 3
> CCOc1cc(C=C2SC(=S)N(CCN3CCOCC3)C2=O)ccc1OC
  30, 20
> CCN1CCN(C2=C(Cl)C(=O)N(c3ccc(OC)cc3)C2=O)CC1
  -2, -4
> CC(C)n1cnnc1CN(C)C(=O)CC1C=CCC1 (stereo not drawn)
  8, 3
> O=C(O)C1CC(C2CCCCN2)CN2CCCCC12 (stereo not drawn)
  -2, -4
> COc1ccc(C2c3cc(OC)c(OC)cc3CCN2C(=O)c2cccc(OC(C)=O)c2C)cc1 (stereo not drawn)
  2, -4
> Cc1cc(Nc2ccccc2)n(C(C)(C)C)n1
  -1, -1
> C[C@@H](C1[C@@H](O)CC2C3C=CC4C[C@@H](O)CC[C@]4(C)[C@H]3CC[C@@]21C)[C@@H]1CCCCN1 (stereo partly drawn)
  2, 2
> O=C1CN(C(=O)c2cc(-c3cccc(F)c3)no2)CCN1
  -1, -4
> Cc1cc(C)nc(NCC2(c3ccc4c(c3)OCO4)CCOCC2)n1
  14, 15
> CCCCCC[C@@H]([C@@H](C)O)n1cnc2c(N)ncnc21
  2, -24
> NC(=O)C1CCN(C(=O)CC(c2ccc(Cl)c(C(F)(F)F)c2)c2c[nH]c3ccccc23)CC1 (stereo not drawn)
  25, 21
> COc1ccc(S(=O)(=O)N(C)Cc2nccn2C)cc1Br
  9, 6
> O=C1CCCN1C1CCCN(Cc2ncc[nH]2)C1 (stereo not drawn)
  3, -2
> CCCCCCCOc1ccc(NC(=O)N[C@@H](Cc2ccccc2)C(=O)N2CCC(C(=O)N3CCOCC3)CC2)cc1
  42, 26
> CCCC(=O)N(Cc1ccccn1)c1nc2c(C)ccc(Cl)c2s1
  -1, -7
> Cc1ccc(-n2nc3c(c2NC(=O)Cc2cccc4ccccc24)CS(=O)(=O)C3)cc1C
  -4, -5
> COc1ccc(C(C)N(C)Cc2nc(N3CCN(C(=O)c4ccco4)CC3)c3ccccc3n2)cc1 (stereo not drawn)
  22, 6
> COc1ccc(C2=NN(C(=O)CN3CCC4(CC3)OCCO4)C(c3ccc(Cl)cc3)C2)cc1 (stereo not drawn)
  9, 7
> Cc1cccc2c(CCNC(=O)[C@H](N)c3ccccc3)c[nH]c12
  34, 29
> CC(SCC(O)CO)c1c(F)cccc1F (stereo not drawn)
  3, 1
> Clc1ccc2c(NC3CCCCC3)nc(-c3cccs3)nc2c1
  1, 1
> CSc1nnc2c(n1)OC(c1ccccc1F)Nc1ccccc1-2 (stereo not drawn)
  0, -2
> CCOC(=O)c1cnc2ncnn2c1C
  3, 7
> CCCC(CC(=O)N1CCN(c2ccccn2)CC1)(C(=O)N1CCN(c2ccccn2)CC1)c1ccccc1 (stereo not drawn)
  1, -7
> Cc1cc(N2CCN(Cc3c(C)nn(CCO)c3C)CC2)ccn1
  3, -2
> COc1ccc(-c2ccc(C(=O)N3CCOCC3)o2)c2ccc(C)nc12
  15, 12

# Sorted by SMILES length (smallest number first): 3 of the compounds above.
# Fields: NPYLR7 agonist, NPYLR7 agonist max-min
> O=C(O)CSCc1csc2c1CCCC2
  7, 6
> COC1CCN(S(=O)(=O)N2CCCCC2CCc2ccccc2)CC1 (stereo not drawn)
  0, 2
> Cc1nn(CC(=O)NS(=O)(=O)c2ccc(F)cc2)c(C)c1Cl
  11, 4

# Next part:
# Fields: NPYLR7 agonist, NPYLR7 agonist max-min
> CC(NC(=O)c1cc(Cl)ccc1F)c1ccc(Cl)s1 (stereo not drawn)
  8, 6
> COc1ccccc1-c1nn(CC(=O)Nc2cnn(C)n2)c2ccccc12
  28, 16
> COC(=O)c1c(S(C)(=O)=O)nc(-c2ccccc2)[nH]c1=O
  -4, 22
> COc1ccc(S(=O)(=O)N2CCc3ccccc3C2)cc1N1CCN(C(=O)c2ccc(F)cc2F)CC1
  21, 16
> Cc1cc(-n2nnc(C(=O)N3CCN(c4ccccn4)CC3)c2-c2ccncc2)ccc1F
  7, 1
> CN1CCc2c(c3ccccc3n2Cc2ccccc2)C1
  -7&-5&-10, -9&-10&-13
> CCOC(=O)C1(CCCc2ccccc2)CCN(C2CCOCC2)CC1
  2, 1
> O=C1C(=Cc2nc3n(c2O)CCCCC3)C=Cc2ccccc21
  4, 1
> Cc1ccc(C)n1C1CCN(c2cc(Cl)nc(N)n2)CC1
  2, 0
> COc1ccccc1NC(=O)N1CCCC2(C1)C(=O)Nc1ccccc12 (stereo not drawn)
  -2, -2
> COc1cccc(S(=O)(=O)N2CCN(C(c3ccccc3)c3ccc(C)cc3)CC2)c1 (stereo not drawn)
  5, 3
> C=CCCC(=O)N1CCC(n2nc(C(=O)OCC)cc2C(C)(C)C)CC1
  7, 4
> COc1cccc(N2C(=O)NC(=O)/C(=C\c3ccco3)C2=O)c1
  0, -1
> CCOCCCNC(=O)c1cc(NC(=O)c2ccc(Cl)cc2)ccc1N1CCC(Cc2ccccc2)CC1
  17, 15
> Cn1nnc2c(=O)n(Cc3c(F)cccc3Cl)cnc21
  3, 10
> Cc1cc(Br)c(NC(=O)CN(C)Cc2nc3ccccc3s2)c(Br)c1
  3, 0
> CCCCCCn1c(=O)c2c(nc3n2CC(C)CN3c2ccccc2)n(C)c1=O (stereo not drawn)
  8, 7
> CCn1c(N)c(Br)c(=O)[nH]c1=O
  2, 9
> CCCCN1C(c2cccc(C)c2)=NS(=O)(=O)c2cc([N+](=O)[O-])ccc21
  17, 9
> Cc1cc(C)c(NC(=O)CSc2nncn2C)c(C)c1
  3, 2
> O=C(OCc1cc(=O)n2ccsc2n1)c1cc2c(s1)CCCC2
  -1, -2
> CCNc1ccccc1C(=O)OC(C(=O)c1ccccc1)c1ccccc1 (stereo not drawn)
  5, 2
> CCOC(=O)CC(=O)N1C[C@@H](C(=O)OCC)[C@@H]2Oc3ccc(Cl)cc3[C@@H]21
  -4, 5

# Only part of the results is shown; count on the stated rates, not on these rows.
